Assay outcomes from PubChem BioAssay.
KCNQ2 block = KCNQ2 potassium channel inhibitors, primary screen, cell-based, CHO-K1, FluxOR thallium flux, B-score (AID 2156); 310,000 compounds, 1.1% hits; 20 min; hits give low values; only compounds with negative scores are shown here; some inactives read as strong as hits; B-score at 10 µM;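 active means fluorescence ratio B-score at most minus 3 library SDs, with starting brightness B-score within 2 library SDs, cut at about -5.5 in these data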
Target sequence (O88943 whole entry, looked up): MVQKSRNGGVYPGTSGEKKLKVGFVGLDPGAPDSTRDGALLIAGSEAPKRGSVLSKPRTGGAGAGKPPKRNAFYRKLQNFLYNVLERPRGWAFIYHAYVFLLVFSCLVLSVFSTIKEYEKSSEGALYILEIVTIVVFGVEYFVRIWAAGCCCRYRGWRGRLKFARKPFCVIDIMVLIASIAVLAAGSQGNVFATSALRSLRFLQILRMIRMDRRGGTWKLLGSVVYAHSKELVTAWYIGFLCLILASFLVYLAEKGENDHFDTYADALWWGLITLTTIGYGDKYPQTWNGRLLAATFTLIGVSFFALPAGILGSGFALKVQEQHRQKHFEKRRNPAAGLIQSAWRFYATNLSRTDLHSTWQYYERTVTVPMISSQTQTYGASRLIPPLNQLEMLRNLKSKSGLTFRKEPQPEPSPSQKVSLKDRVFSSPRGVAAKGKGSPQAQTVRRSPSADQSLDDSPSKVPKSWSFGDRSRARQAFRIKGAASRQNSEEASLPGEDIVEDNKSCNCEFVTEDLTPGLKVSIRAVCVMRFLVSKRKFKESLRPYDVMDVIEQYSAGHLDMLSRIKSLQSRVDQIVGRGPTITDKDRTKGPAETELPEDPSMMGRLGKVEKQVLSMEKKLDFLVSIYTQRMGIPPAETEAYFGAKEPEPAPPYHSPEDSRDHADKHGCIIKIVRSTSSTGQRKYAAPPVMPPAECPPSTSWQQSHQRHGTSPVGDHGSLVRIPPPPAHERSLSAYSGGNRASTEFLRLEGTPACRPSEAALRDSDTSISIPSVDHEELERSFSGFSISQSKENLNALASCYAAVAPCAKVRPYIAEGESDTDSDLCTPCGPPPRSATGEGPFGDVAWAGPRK
KCNQ2 block baseline = recorded beside KCNQ2 block, whose call it bears; B-score; measured here: initial fluorescence intensity artifact check;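 brightness before thallium and not channel activity; 0 = typical well and far values either way flag optical interference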
* = called active by the depositor; i = inactive.

Values run as follows: KCNQ2 block | KCNQ2 block baseline
> Cc1cccc(C(=O)NC(=S)Nc2ccc(Cc3ccncc3)cc2)c1
 : i | 0.96
> Cc1ccc(S(=O)(=O)NNC(=O)C(=O)NNc2ccccn2)cc1
 : i | -0.75
> CC1(C)C(c2ccccc2)=[N+]([O-])CN1O
 : i | -2
> Cc1ccc(C(CCNC(C)c2cccs2)c2ccco2)cc1 (configuration not stated)
 : i | 0.87
> O=C(CN1CCOCC1)Nc1scc(-c2ccccc2)c1C(=O)N1CCOCC1
 : i | 0.62
> CCCNC(=O)OC[C@H]1O[C@H](CCO/N=C/[C@@H](NS(=O)(=O)c2ccc(C)cc2)[C@H](C)/C=C/CC(=O)OC)C=C[C@@H]1Oc1ccc(OC)cc1
 : i | 0.02
> CC(NS(=O)(=O)c1ccc2c(c1)CC(C)N2C(=O)C1CC1)c1ccccc1 (configuration not stated)
 : i | 0.39
> CC(=O)N(Cc1ccc(F)cc1)C1=C(NCCc2ccccc2)C(=O)c2ccccc2C1=O
 : i | 0.8
> O=C(Nc1ccc(Cl)cc1)N1CCN(Cc2ccc3c(c2)OCO3)CC1
 : i | 1.4
> Cc1ccc(-c2ccnc3nc(Sc4ncc(C(F)(F)F)cc4Cl)nn23)cc1
 : i | -1.1

5 compounds already listed, ordered by the value under KCNQ2 block baseline, rising.
Values run as follows: KCNQ2 block | KCNQ2 block baseline
> CC(NS(=O)(=O)c1ccc2c(c1)CC(C)N2C(=O)C1CC1)c1ccccc1 (configuration not stated)
 : i | 0.39
> O=C(CN1CCOCC1)Nc1scc(-c2ccccc2)c1C(=O)N1CCOCC1
 : i | 0.62
> Cc1ccc(C(CCNC(C)c2cccs2)c2ccco2)cc1 (configuration not stated)
 : i | 0.87
> Cc1cccc(C(=O)NC(=S)Nc2ccc(Cc3ccncc3)cc2)c1
 : i | 0.96
> O=C(Nc1ccc(Cl)cc1)N1CCN(Cc2ccc3c(c2)OCO3)CC1
 : i | 1.4

Remaining list, next part.
Values run as follows: KCNQ2 block | KCNQ2 block baseline
> Nc1nnc(CC(=O)N/N=C/c2ccc(-c3ccccc3)o2)s1
 : i | -1.4
> CNC(=S)Nc1ccc([N+](=O)[O-])c(C)c1
 : i | 0.58
> Cc1c(NC(=O)COC(=O)CSc2ccc(C(N)=O)cc2[N+](=O)[O-])c(=O)n(-c2ccccc2)n1C
 : i | -1.3
> CC(=O)Nc1c(C(=O)NCc2ccccc2)nnn1Cc1ccccc1
 : i | 2.4
> COc1ccc(-c2csc3nc(-c4ccccc4F)oc(=O)c23)cc1OC
 : i | 1.9
> O=C(COC(=O)C12CC3CC(CC(O)(C3)C1)C2)NCCc1ccc(Cl)cc1
 : i | -2.6
> CN(CC(=O)N1CCN(c2ncccn2)CC1)S(=O)(=O)c1ccc(Cl)cc1
 : i | -0.11
> CS(=O)(=O)c1ccccc1C(=O)Nc1cccc2ncccc12
 : i | -0.3
> C/C(=N\NC(=O)c1nnn(-c2nonc2N)c1CN(C)C)c1ccco1
 : i | 0.92
> CCOC(=O)CSCC(=O)Nc1c(C(=O)C2CC2)oc2ccccc12
 : i | 0.36

Continued.
Values run as follows: KCNQ2 block | KCNQ2 block baseline
> Cc1c(C(=O)NCCSc2ccc(Cl)cc2)cccc1[N+](=O)[O-]
 : i | 0.43
> S=C(NCc1cccs1)Nc1cccc2ccccc12
 : i | 1.1
> Cc1ccc(N(C(=O)Cn2nnc(-c3ccccc3F)n2)C(C(=O)NC2CCCC2)c2ccncc2)cc1 (configuration not stated)
 : i | 1.4
> C#CCOCCOCCOCCNc1nc(N2CCN(C(=O)[C@H](CCC(=O)O)n3cc(C(N)Cc4ccc(O)cc4)nn3)CC2)nc(N2CCN(C(=O)[C@H](CCC(=O)O)n3cc(C(N)[C@H](C)CC)nn3)CC2)n1 (some centres not stated)
 : i | 0.98
> Cc1cc(C)c(NC(=S)N2CCN(c3ccc([N+](=O)[O-])cn3)CC2)cc1C
 : i | 0.13
> CCOc1ccccc1NS(=O)(=O)c1ccc(Br)s1
 : i | 0.38
> CCCn1c(=O)[nH]c(=O)c2c1nc(-c1cc([N+](=O)[O-])ccc1Cl)n2CCOC
 : i | 1.8
> Cc1ccc(C2=NOC3(CC(=O)N(c4ccccc4)C3=O)C2)cc1 (configuration not stated)
 : i | -1.1
> CCCCCC(=O)Nc1cccc(C2=NOC3(C2)C[C@H](C(N)=O)N(C(=O)COc2ccc(Cl)cc2)C3)c1 (some centres not stated)
 : i | 0.03
> Cc1ccc(C)c(NC(=S)NCCc2ccc(F)cc2)c1
 : i | 0.52

Continuation.
Values run as follows: KCNQ2 block | KCNQ2 block baseline
> Cc1ccc(OCCN2CCN(c3ncnc4sc(C)c(C)c34)CC2)cc1
 : i | 0.21
> O=C(Nn1cnc2ccccc2c1=O)c1ccc([N+](=O)[O-])cc1Cl
 : i | -0.06
> CSc1cc(/C=N/O)c(SC)s1
 : i | 0.73
> CCOC(=O)/C=C(/C)N1N=C(c2ccc(OC)cc2)CC1c1cccc([N+](=O)[O-])c1 (configuration not stated)
 : i | 0.03
> CCc1nccn1S(=O)(=O)c1ccc(C)c(C)c1
 : i | 0.66
> CC(C(=O)Nc1nc2ccccc2s1)n1cc([N+](=O)[O-])cn1 (configuration not stated)
 : i | 0.13
> COc1ccc2c(C)nc(Nc3nc(C)cc(C)n3)nc2c1
 : i | 0.58
> COc1ccc(-c2cc(Cl)cc3c(=O)c4ccccc4n(C)c23)cc1F
 : i | 0.51
> COc1ccc(CCNCCC(=O)Nc2c(C)cc(C)cc2C)cc1OC
 : i | 0.5
> COc1ccc(CN(C)CC(=O)NC(C)c2ccccc2)cc1OC (configuration not stated)
 : i | 3

(listing goes on)
Values run as follows: KCNQ2 block | KCNQ2 block baseline
> O=c1[nH]c(C2CCN(S(=O)(=O)c3ccccc3)CC2)nc2c1nnn2Cc1ccc2c(c1)OCCO2
 : i | -0.23
> CC(=O)c1ccc(N2CCN(C(=O)C3CCC3)CC2)cc1
 : i | 0.68
> CCN1C(=O)/C(=C2/Sc3ccc(OC)cc3N2C)SC1=Nc1ccc(OC)cc1
 : i | 1.2
> Cc1cc(O)cc(O)c1C(=O)Cc1cscn1
 : i | 0.54
> CCOC(=O)Cn1nc(/C=C/c2ccccc2)ccc1=O
 : i | 0.47
> CCCc1nnc(NC(=O)OCC)s1
 : i | 0.7
> COc1ccc(N(CC(=O)N/N=C/c2cccc(OC)c2OC)S(=O)(=O)c2ccccc2)cc1
 : i | 1.1
> Cc1ccc(C)c(N2CCN(C(=O)C3CCCN(S(=O)(=O)c4c(C)[nH]c(=O)[nH]c4=O)C3)CC2)c1 (configuration not stated)
 : i | -1.2
> Cc1ccccc1CN1N=C(/C=C/c2ccccc2)CCC1=O
 : i | -0.66
> COC(=O)CSc1nc2ccc(NC(=O)c3ccccc3C(=O)N3CCOCC3)cc2s1
 : i | 0.33

Continuation.
structure	KCNQ2 block	KCNQ2 block baseline
N#CC1=C(N)N=C(SCc2ccccc2)C(C(N)=O)C12CCCCC2 (configuration not stated)	i	-0.01
COc1ncnc2c1NC1=C(S2)C(=NCCC(=O)O)CC(C)(C)C1	i	9.1
Cc1cc(OCC(=O)Nc2ccc(CN3CCOCC3)cc2)c2c(C)cc(=O)oc2c1	i	-0.79
c1ccc(CSc2nnc(-c3cccs3)n2Cc2ccco2)cc1	-6*	0.8*
CCN(CC)CCOC(=O)/C=C/c1ccccc1OC	i	0.4
CSc1nc2ccc(NC(=O)C3=NNC(=O)CC3)cc2s1	i	1.8
COc1ccc(C2/C=C\CN(S(=O)(=O)c3ccc(C)cc3)CC(=O)N2Cc2ccc(F)cc2)cc1 (configuration not stated)	i	-0.55
COC(=O)C1=NN(c2ccc(Cl)cc2)C2C(=O)N(c3ccccc3OC)C(=O)C12 (configuration not stated)	i	0.09
CC(C)(C)c1ccc(S(=O)(=O)NNC(=O)C2CCN(Cc3cccc(F)c3)CC2)cc1	i	1.3
Cc1c(O)ccc2c(CN3CCOCC3)cc(=O)oc12	i	0.16

The list goes on:
structure	KCNQ2 block	KCNQ2 block baseline
CC(=O)N(Cc1ccc(Br)cc1)c1ccccc1C(=O)O	i	-0.44
O=C(NC1CCCC1)C(c1ccc(F)cc1)N(Cc1ccc(F)cc1)C(=O)CCl (configuration not stated)	i	0.61
COc1ccc(Cc2nc3ccc(C(=O)NCCCSC)cc3o2)cc1OC	i	-0.25
COc1ccc(S(=O)(=O)NCC(=O)N(CC2CCCO2)C(C(=O)NC2CCCC2)C(C)C)cc1 (configuration not stated)	i	0.91
COC(=O)c1cc(-c2ccc(Cl)cc2)n(-c2ccc(S(N)(=O)=O)cc2)n1	i	-1.6
CCOC(=O)CC1(NC(=O)c2cc(COc3c(F)cccc3F)on2)CCCCC1	-5.7*	-0.45*
CC1(C)CC(NC(=O)c2cc([N+](=O)[O-])cc([N+](=O)[O-])c2)CC(C)(C)N1	i	0.75
O=C(CSc1ccc(-c2cccnc2)nn1)Nc1ccccc1C(F)(F)F	i	-0.33
CCOc1ccc(NS(=O)(=O)c2ccc(NC(=S)NC(=O)C(C)C)cc2)cc1	i	-0.22
CCn1c(CNc2ccc(C)cc2)nnc1SCC(=O)NCc1ccccc1	i	-0.4

Carrying on.
structure	KCNQ2 block	KCNQ2 block baseline
Cc1ccccc1CCN(CC(=O)NC1CCCCC1)C(=O)c1csnn1	i	-1.8
COCc1ccc(CN2CCCC(C(=O)Nc3ccc(-c4cscn4)cc3)C2)o1 (configuration not stated)	i	-0.82
CCC(=O)Nc1nc(OC)cc(OC)n1	i	-0.72
COc1cccc(NC(=S)N2CCN(c3ccc([N+](=O)[O-])cc3)CC2)c1	i	0.2
COc1ccc(CCNC(=O)CSc2ccc(NC(C)=O)cc2)cc1OC	i	0.95
O=C(NCC(c1ccco1)N1CCOCC1)c1ccccc1 (configuration not stated)	i	1.5
COc1ccc(C(=O)OCc2nc(N)nc(Nc3ccccc3C)n2)cc1OC	i	1.3
CC(C)(C)c1ccc(Oc2ccc(N)cc2)cc1	i	1.6
CCN(CC)CCNc1ccnc2cc(Cl)ccc12	i	0.51
O=C(Nc1nnc(C2CC2)s1)c1cc([N+](=O)[O-])ccc1N1CCCCC1	i	1.1

The results go on.
structure	KCNQ2 block	KCNQ2 block baseline
CCn1c(=S)sc2c(=O)n(-c3ccccc3)c(=S)[nH]c21	i	-0.66
O=C(CN1C(=O)NC2(CCCc3ccccc32)C1=O)N1CCc2ccccc2C1 (configuration not stated)	i	7.1
CCOc1ccccc1CNC(=O)Cn1ccc2cc(S(=O)(=O)N3CCCCCC3)ccc21	i	-1.9
CCc1ccc2[nH]c(C(=O)Nc3ccc(Br)c(C)n3)cc2c1	i	-1.7
CCCC[C@@H](CN[C@H](C)CNC)NCC1CCC(C(C)(C)C)CC1 (some centres not stated)	i	2.4
CCN(CC)S(=O)(=O)c1ccc(-n2cnnn2)c(C)c1	i	-0.36
O=C(O)c1ccccc1C(=O)N(Cc1ccccc1)Cc1ccccc1	i	-1.2
CCOC(=O)CCn1nc(-c2ccc(C)cc2)c2ccccc2c1=O	i	0.06
COc1ccc(NC(=O)CCCC(=O)c2ccccc2)c(OC)c1	i	1
O=S(=O)(NC1CC2CCC1C2)c1ccc(Br)cc1 (configuration not stated)	i	-0.62

Next part:
structure	KCNQ2 block	KCNQ2 block baseline
CCOC(=O)c1c(C(F)(F)C(F)(F)C(F)(F)C(F)(F)F)n[nH]c1C	i	-0.98
CC(C)OCCCNC(=O)c1cccc(NC(=O)c2ccccc2)c1	i	0.69
CCOc1cc(N2CCOCC2)c(OCC)cc1NC(=O)c1oc2ccccc2c1C	i	0.89
CSc1ccccc1C(=O)NCCCn1ccnc1	i	2.3
CC1=C(C(=O)Nc2ccccc2)C(c2ccncc2)C(C#N)=C(SCC(=O)NC(C)C)N1 (configuration not stated)	i	1.2
O=C(O)C1C2C=CC(C3CC23)C1C(=O)NCCc1ccccc1 (configuration not stated)	i	0.11
CCOC(=O)C1CCN(C(c2cc3c(C)ccc(C)c3[nH]c2=O)c2nnnn2C2CCCCC2)CC1 (configuration not stated)	i	-1.8
CCOC(=O)c1c(NC(=O)CC2SC(N)=NC2=O)sc(C)c1C (configuration not stated)	i	3.2
CCN(CC(=O)NCCCN1CCOCC1)S(=O)(=O)c1ccc(F)cc1	i	0.35
O=C(CCCN1C(=O)CCC1=O)Nc1ccccc1F	i	-0.72

The closing 2 records of the part above are carried over, then new ones follow.
structure	KCNQ2 block	KCNQ2 block baseline
CCN(CC(=O)NCCCN1CCOCC1)S(=O)(=O)c1ccc(F)cc1	i	0.35
O=C(CCCN1C(=O)CCC1=O)Nc1ccccc1F	i	-0.72
N[C@@H](Cc1ccc(O)cc1)c1nnc([C@H](CC(=O)O)NC(=O)C2CCNCC2)o1	i	0.32
Cc1ccsc1C(=O)N1CCCC(N(C)Cc2ccccc2)C1 (configuration not stated)	i	0.93
COc1cc(-c2noc(C)c2/C=C/c2ccc(N)cc2)cc(OC)c1OC	i	-0.1
COC(=O)c1ccc(OCC(O)CN2CCC(C)CC2)cc1 (configuration not stated)	i	0.8
CCCOc1cc(N(CC)CC)ccc1/C=C(/C#N)c1nc2ccc(C)cc2[nH]1	i	2.9
O=C(N/N=C/c1ccc(Cl)s1)c1ccccc1[N+](=O)[O-]	i	1.6
CC(=O)Oc1ccccc1C(=O)O	i	1
CCOC(=O)C1CCN(c2ccccc2CN2CCN(c3ccccc3OCC)CC2)CC1	-7.2*	-1.2*
CC(C)(C)OC(=O)N1CCC[C@H]1c1nnc(SCc2c(F)cccc2Cl)o1	i	-1.8
CCc1ccc(/C(C)=N/NC(=O)CNC(=O)/C=C/c2ccco2)cc1	i	0.95

New compounds follow.
structure	KCNQ2 block	KCNQ2 block baseline
CCOC(=O)[C@@H]1[C@H]2COc3ccc(Br)cc3[C@@H]2N2C(=O)N(c3ccc(C(F)(F)F)cc3)C(=O)[C@]12C	i	0.08
Cc1ccc(O)c(O)c1	i	0.77
Oc1cccc(/C=N/N2CCN(C3c4ccccc4-c4ccccc43)CC2)c1	i	0.45
COc1ccc(-c2nc(CS(=O)CC(=O)N3CCc4ccccc4C3)c(C)o2)cc1 (configuration not stated)	i	-0.49
COc1ccc(C)cc1NC(=O)CN(c1ccccc1)S(C)(=O)=O	i	-0.17
COc1cccc(-n2nnc3c(=O)n(CC(=O)NCC4CCCO4)cnc32)c1 (configuration not stated)	i	3.1

An excerpt; rates above refer to the full screens.
